Vaccinia mCherry = qHTS for Stage-Specific Inhibitors of Vaccinia Orthopoxvirus: mCherry Reporter Primary qHTS; Vaccinia virus mCherry reporter infection, fluorescence; about a quarter of the inactives have no number; Potency, µM (top dose mostly 36.5 µM), without a hit: at the top dose activity change, negative = inhibition, most hits filed as inhibitors; actives 0.63% (n = 310,000); AID 720579, 2013; active = well fitted inhibition curve with a large enough effect; inconclusive = small, poorly fitted or top-dose-only effect; inactive = no such curve, though single readings can be large or run the other way; tested in A549 cells; further: nearly all actives have a fitted effect of over 35% in size; inactives centre near -10
Vaccinia Venus = qHTS for Stage-Specific Inhibitors of Vaccinia Orthopoxvirus: Venus Reporter Primary qHTS. Vaccinia virus Venus reporter expression, fluorescence. Potency, µM (highest dose often 36.5 µM), without a hit: at the highest dose activity change, negative = inhibition, usual class: inhibitors. actives 0.46% (n = 330,000). AID 720580, 2013; active means well fitted inhibition curve with a large enough effect; inconclusive means small, poorly fitted or top-dose-only effect; inactive means no such curve, though single readings can be large or run the other way; tested in A549 cells; further: nearly all actives have a fitted effect of over 30% in size; inactives centre near -10
An asterisk follows results filed as active; i = inactive; ? = inconclusive; · = not tested or not shown; & = joins results of further samples; [ ] = another dose, or the depositor's remark. On the % scale 0 is the no-effect control and ±100 the full control effect; potency means the concentration at half of the fitted maximal effect.

The opening 25 compounds as a preview:
Sequence of screens – Vaccinia mCherry, Vaccinia Venus
1) CSC1=NCCN1C(=O)Cc1cccc2ccccc12
→ -22%, -1%
2) C=CC[C@]12CCc3sccc3C1N(c1ccc(C(=O)OCC)cc1)C2=O (stereo partly drawn)
→ -6%, ?
3) NNc1ccc(Cl)c(C(=O)O)c1
→ -5%, -1%
4) CCCCNC(=O)Nc1ccon1
→ -14%, -7%
5) Cc1c(C)c2c(cc(C)c3c(-c4ccc(Br)cc4)coc32)oc1=O
→ -7%, -7%
6) C/C(=N/OC(=O)c1ccc(C)cc1)c1ccc(N2C(=O)C3CCCCC3C2=O)cc1 (stereo not drawn)
→ -4%, -14%
7) Nc1ncnc2c1nc(Br)n2[C@@H]1O[C@H]2COP(=O)(O)O[C@@H]2[C@@H]1O
→ i, -8%
8) CCC[N+]1(CC#CCC(c2ccccc2)c2ccccc2)CCCCC1
→ i, -18%
9) Cn1c(=O)[nH]c(=O)c2c1nc(N1CCCCC1)n2C/C=N/Nc1ccc(C(=O)O)cc1
→ -17%, -8%
10) COC(=O)CCN(C(=O)c1cccc(OC(C)=O)c1)c1ccccn1
→ ?, -14%
11) COc1ccc2[nH]c3c(c2c1)CCN1C(=O)C(CC(=O)NC/C=C(\C)CCC=C(C)C)C[C@H](C(=O)N2CCOCC2)[C@@]31CCC1CCCC1 (stereo partly drawn)
→ 10µM*, ?
12) CC(=O)N1CCC(N(Cc2ccc(C)o2)C(=O)Nc2ccccc2F)CC1
→ -2%, 9%
13) COc1ccc(N2CCN(S(=O)(=O)c3ccc4c(c3)OCCO4)CC2)cc1
→ i, 4%
14) CCOC(=O)N1CCC(NC(=O)c2cc3c(=O)n(C)c4ccccc4c3n2C)CC1
→ -6%, 0%
15) CC(C)(C)c1ccc(N2C(=N)SCC2=O)cc1
→ -19%, -16%
16) O=C(CCC(=O)Nc1ccc(F)cc1)N/N=C/c1cccc(Br)c1
→ -2%, -6%
17) COc1ccc2occ(C(=O)c3ccc(N=C(C)N(C)C)cc3)c2c1
→ ·, -19%
18) CCC(CC)C(=O)Nc1cc(-c2cn3cccnc3n2)ccc1OC
→ -1%, -8%
19) CCCC(=O)N1CCC1(C)C(=O)NS(=O)(=O)c1ccc(Cl)cc1 (stereo not drawn)
→ 6%, 2%
20) CC(=O)Nc1cc(C(F)(F)F)ccc1OCC1CCCO1 (stereo not drawn)
→ -17%, -10%
21) CCOC(=O)N1CCC(N2Cc3cccc(C(=O)N4CC(C)CC(C)C4)c3C2=O)CC1 (stereo not drawn)
→ -11%, -6%
22) Cc1cc(-c2nc3ncccc3o2)ccc1NC(=S)NC(=O)C(C)C
→ ?, ?
23) COc1ccc(NC(=O)COC(=O)C2CCN(C(=O)c3ccc(Cl)cc3)CC2)c([N+](=O)[O-])c1
→ -2%, -6%
24) CCn1cnc2cc(NS(=O)(=O)c3ccc(C)cc3)ccc21
→ -16%, -13%
25) COC(=O)CCSC(=S)N1CCOCC1
→ i, -3%

This part in full, from the first entry:
Sequence of screens – Vaccinia mCherry, Vaccinia Venus
1) CSC1=NCCN1C(=O)Cc1cccc2ccccc12
→ -22%, -1%
2) C=CC[C@]12CCc3sccc3C1N(c1ccc(C(=O)OCC)cc1)C2=O (stereo partly drawn)
→ -6%, ?
3) NNc1ccc(Cl)c(C(=O)O)c1
→ -5%, -1%
4) CCCCNC(=O)Nc1ccon1
→ -14%, -7%
5) Cc1c(C)c2c(cc(C)c3c(-c4ccc(Br)cc4)coc32)oc1=O
→ -7%, -7%
6) C/C(=N/OC(=O)c1ccc(C)cc1)c1ccc(N2C(=O)C3CCCCC3C2=O)cc1 (stereo not drawn)
→ -4%, -14%
7) Nc1ncnc2c1nc(Br)n2[C@@H]1O[C@H]2COP(=O)(O)O[C@@H]2[C@@H]1O
→ i, -8%
8) CCC[N+]1(CC#CCC(c2ccccc2)c2ccccc2)CCCCC1
→ i, -18%
9) Cn1c(=O)[nH]c(=O)c2c1nc(N1CCCCC1)n2C/C=N/Nc1ccc(C(=O)O)cc1
→ -17%, -8%
10) COC(=O)CCN(C(=O)c1cccc(OC(C)=O)c1)c1ccccn1
→ ?, -14%
11) COc1ccc2[nH]c3c(c2c1)CCN1C(=O)C(CC(=O)NC/C=C(\C)CCC=C(C)C)C[C@H](C(=O)N2CCOCC2)[C@@]31CCC1CCCC1 (stereo partly drawn)
→ 10µM*, ?
12) CC(=O)N1CCC(N(Cc2ccc(C)o2)C(=O)Nc2ccccc2F)CC1
→ -2%, 9%
13) COc1ccc(N2CCN(S(=O)(=O)c3ccc4c(c3)OCCO4)CC2)cc1
→ i, 4%
14) CCOC(=O)N1CCC(NC(=O)c2cc3c(=O)n(C)c4ccccc4c3n2C)CC1
→ -6%, 0%
15) CC(C)(C)c1ccc(N2C(=N)SCC2=O)cc1
→ -19%, -16%
16) O=C(CCC(=O)Nc1ccc(F)cc1)N/N=C/c1cccc(Br)c1
→ -2%, -6%
17) COc1ccc2occ(C(=O)c3ccc(N=C(C)N(C)C)cc3)c2c1
→ ·, -19%
18) CCC(CC)C(=O)Nc1cc(-c2cn3cccnc3n2)ccc1OC
→ -1%, -8%
19) CCCC(=O)N1CCC1(C)C(=O)NS(=O)(=O)c1ccc(Cl)cc1 (stereo not drawn)
→ 6%, 2%
20) CC(=O)Nc1cc(C(F)(F)F)ccc1OCC1CCCO1 (stereo not drawn)
→ -17%, -10%
21) CCOC(=O)N1CCC(N2Cc3cccc(C(=O)N4CC(C)CC(C)C4)c3C2=O)CC1 (stereo not drawn)
→ -11%, -6%
22) Cc1cc(-c2nc3ncccc3o2)ccc1NC(=S)NC(=O)C(C)C
→ ?, ?
23) COc1ccc(NC(=O)COC(=O)C2CCN(C(=O)c3ccc(Cl)cc3)CC2)c([N+](=O)[O-])c1
→ -2%, -6%
24) CCn1cnc2cc(NS(=O)(=O)c3ccc(C)cc3)ccc21
→ -16%, -13%
25) COC(=O)CCSC(=S)N1CCOCC1
→ i, -3%
26) Cc1cc(C(=O)N/N=C2\CCCC(=O)C2)c(C)n1-c1ccccc1
→ i, -5%
27) Cc1ccc(CNC(=O)C(=O)Nc2c3c(nn2-c2ccc(F)cc2)CSC3)cc1
→ ?, ?
28) COC(=O)c1ccc(CNC(=O)COc2ccccc2Br)o1
→ -13%, -4%
29) Cn1c(-c2ccccc2)nc2cnccc21
→ -3%, 5%
30) O=C(Cc1ccccc1)Nc1cccc(NC(=O)c2ccccc2)c1
→ -10%, -29%
31) O=C(COC(=O)c1cc(-c2cccs2)nc2ccccc12)c1ccc(Cl)cc1
→ -8%, -14%
32) Clc1ccc(Cl)c(OCCN2CCOCC2)c1
→ i, 1%
33) CCCN(Cc1ccccc1)C(=S)Nc1cccc(C)c1C
→ -15%, -10%
34) CCCc1nc2c3ccccc3ccn2c1Cc1ccc(OC)cc1C
→ 9%, -7%
35) CCN(CC(=O)NCc1ccc(Cl)cc1)C(=O)COc1cccc(C(F)(F)F)c1
→ -23%, -12%
36) Cc1cccc(NS(=O)(=O)c2cccc(C(=O)NCC(c3ccco3)N(C)C)c2)c1 (stereo not drawn)
→ -19%, -2%
37) O=C1NN(c2cccc(Br)c2)C(=O)/C1=C\c1ccccc1
→ -3%, -12%
38) O=C(CSc1cccc2cccc(Cl)c12)NCc1cccs1
→ -8%, -2%
39) CCn1nnc(NC(=O)c2ccc(-c3ccccc3[N+](=O)[O-])o2)n1
→ i, -19%
40) COc1cc(NC(=O)CSc2nc(=O)n(CCN3CCOCC3)c3c2CCC3)cc(OC)c1
→ i, -8%
41) Cc1c(C(=O)NCCN2CCC(c3ccccc3)CC2)cnn1-c1nccc(-c2cccs2)n1
→ ?, -27%
42) CCn1c(C)cc(/C=C2/SC(=O)N(C(C)C(=O)OC)C2=O)c1C (stereo not drawn)
→ -28%, -6%
43) COc1ccc(/C=C/C(=O)Nc2ccc(N3CCOCC3)cc2)cc1
→ -26%, -20%
44) CC(C)CCNC(=O)CCc1nnc(COc2ccccc2)o1
→ -16%, -16%
45) O=C(Cc1nn[nH]n1)c1ccccc1O
→ -8%, -3%
46) CCOc1cccc(C(=O)Nc2cccc(-c3nnc(-c4ccc(C)cc4)o3)c2)c1
→ -12%, -6%
47) Cc1cc(C(=O)NCc2ccco2)c2ccccc2n1
→ i, -6%
48) O=C(COC(=O)CSc1ccccc1)NC1CCS(=O)(=O)C1 (stereo not drawn)
→ -23%, -15%
49) c1ccc([C@H]2CNCCN2CCc2cccc3ccccc23)cc1
→ i, ?
50) CC(C)(C)S(=O)(=O)c1cnc(-c2cnccn2)nc1N
→ i, -11%
51) CN(Cc1nc(-c2ccccn2)no1)S(=O)(=O)c1ccccc1
→ ·, 2%
52) O=C(Cn1ncc2c3ccccc3n(Cc3cccc(Cl)c3)c2c1=O)NCCCc1ccccc1
→ -11%[7.34 µM], -5%[7.34 µM]
53) CCN(CC(=O)NC(C)C)C(=O)c1ccc(S(=O)(=O)N(C)c2ccccc2OC)cc1
→ -12%, -7%
54) O=C(CCC(=O)N1CCCC1)Nc1nnc(C2CCCCC2)s1
→ 1%, 3%
55) COc1ccc2oc(-c3cccc(NC(=O)c4sc5c([N+](=O)[O-])cccc5c4Cl)c3)nc2c1
→ -4%, 4%
56) COc1ccc(N2CCN(C(=O)C3CCN(S(=O)(=O)c4ccccc4)CC3)CC2)cc1
→ -4%, -13%
57) CCN(CC)CCNC(=O)c1ccc2c(=O)n3nc(Nc4ccccc4OC)sc3nc2c1
→ ?, -21%
58) CC(C)(C)c1ccc(C(=O)N2CCC(C(=O)NC3CCCCCC3)CC2)cc1
→ ?, -19%
59) O=C(CSc1nnc(Cn2c(=O)sc3ccccc32)n1CCc1ccccc1)N1CCCC1
→ -5%, -4%
60) Cc1cccc(N2CCN(CC(=O)Nc3ccc(-n4cnnn4)cc3)CC2)c1C
→ i, -9%

(continued)
Sequence of screens – Vaccinia mCherry, Vaccinia Venus
61) CN(C)Cc1ccccc1-c1ccc2ncnc(N(C)Cc3ccco3)c2c1
→ i, 0%
62) CC(=O)c1cccc(NC(=O)c2oc(=O)c3ccccc3c2-c2ccccc2)c1
→ -8%, -7%
63) COCCCNC(=O)CCC(=O)N1Cc2ccccc2Oc2ncccc21
→ -11%, 0%
64) CCC(C)[C@H](Nc1nc(-c2ccccc2)nc2c1oc1ccccc12)C(=O)O (stereo partly drawn)
→ ·, -12%
65) O=C(NCc1nnnn1-c1ccc(F)cc1)c1ccc2c(c1)OCO2
→ i, -9%
66) Cc1ccc(OCC(=O)Nc2ccc(C(=O)OCc3cc(=O)n4nc(C5CC5)sc4n3)cc2)cc1
→ -10%, -2%
67) COC(=O)c1cc(-c2cccc(OC)c2)on1
→ -14%, -6%
68) N#Cc1cnn(CC2CCCCC2)c1N
→ ·, -14%
69) CCCN(C(=O)Cn1nc(Cc2ccncc2)c2ccccc2c1=O)c1ccccc1C
→ -11%, -4%
70) Cc1ccc(NC2=C([N+](=O)[O-])CS(=O)(=O)C2)cc1
→ i, -13%
71) O=C(Cn1cnc2ccccc21)OCC(=O)N1CCCCC1
→ -9%, -5%
72) COCCn1c(C)cc(C(=O)COC(=O)c2ccc(Cl)c(S(N)(=O)=O)c2)c1C
→ -2%, -15%
73) CC(C)(C)NC(=O)NC(=O)COC(=O)CNC(=O)c1cccc(F)c1
→ ·, -2%
74) Cn1c(N)c(C(=O)CSc2ncn[nH]2)c(=O)n(C)c1=O
→ ?, -5%
75) Nc1[nH]c(C(=O)c2ccccc2)c(-c2ccccc2C(F)(F)F)c1C(=O)c1cccs1
→ -18%, -13%
76) O=C(COC(=O)c1ccc(Cl)cc1)NC1CCCCCC1
→ -11%, -2%
77) CC(=O)c1cccc(NC(=O)CN(c2cccc(F)c2)S(C)(=O)=O)c1
→ ·, -25%
78) Cc1ccc(C(=O)OCC(=O)NNC(=O)COc2ccc(Cl)cc2)c(O)c1
→ -10%, -1%
79) COC(=O)[C@@]12C[C@@H](CC(=O)NCc3cccc(C(F)(F)F)c3)C(=O)N(Cc3ccccc3)C1=CCC(C)(C)C2
→ ?, ?
80) Cc1cccc(N/C=C(\[N+](=O)[O-])S(=O)(=O)c2ccccc2)c1
→ 2%, -2%
81) Cc1cc(Cl)ccc1NC(=O)CN1CCCC1
→ i, -11%
82) O=C([C@@H]1CC=C[C@@H]2CCN(C3CC3)C(=O)[C@@H]21)N1CCN(c2ccccc2)CC1
→ i, 0%&-20%
83) Cc1ccc(NS(=O)(=O)c2cc(NC(=O)C(C)Oc3ccccc3)ccc2C)c(C)c1 (stereo not drawn)
→ -18%, -28%
84) Cc1cc(C)nc(NC(=O)c2c(C(=O)O)noc2C)n1
→ i, -21%
85) N#Cc1ccc(-c2c(-c3ccccc3)ncc3cc(F)ccc23)cc1
→ ?, -15%
86) Cc1nc(C(C)NC2CCN(c3cccc(NC(=O)c4ccncc4)c3)CC2)cs1 (stereo not drawn)
→ -10%, -6%
87) COc1ccc(-c2cn3cc(C)ccc3n2)cc1Br
→ -27%, -21%
88) O=C(Cc1ccccc1)NNC(=O)Nc1ccc(Cl)c(Cl)c1
→ -3%, -14%
89) CCCCCCn1c(CN2CCN(C(=O)c3ccco3)CC2)nc2c1c(=O)n(C)c(=O)n2C
→ -13%, -10%
90) Cc1nnc(SCC(N)=O)n1CC1CCCO1 (stereo not drawn)
→ -10%, -7%
